RanGTP-Impb inh = inhibitors of RanGTP-importin-beta interaction, primary screen, biochemical, FRET, CFP-Ran, YFP-importin-beta, homogeneous | Ran GTPase (GTP-bound) - importin-beta complex | cell-free CFP-Ran/YFP-importin-beta FRET ratio | inhibition, % (no concentration beside the values) | hit rate 1.1% among 300,000 | AID 2216, 2009;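 active = most replicates above 15%; inconclusive = exactly half above 15%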;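 note: 0% = DMSO wells and 100% = Ran loaded with GDP instead of GTP; wells of about 40 µL received 100 nL stock; the first replicate is given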
Beta cell apopt = inhibitors of cytokine-induced beta cell apoptosis, primary screen, luminescence | INS-1E cytokine-induced death, ATP luminescence, 48 h; percent of positive-control rescue, neutral wells zero | protection from apoptosis, % (concentration not given with the values) | hit rate 0.8% among 300,000 | AID 435005, 2010;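 active = all replicates at 75% or more, or half of them and the mean; inconclusive = half reach 75% but not the mean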;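 note: 0% = cytokine-treated negative control wells and 100% = positive control rescue; higher means more ATP so stronger rescue from cytokine killing; wells of about 40 µL received 100 nL stock; the first replicate is given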
Vif TR-FRET = inhibitors of Vif binding to APOBEC3G peptide, primary screen, biochemical, TR-FRET, GST-Vif 1-94, biotin-A3G peptide, dose response retest (AID 1117319) | one-dose inhibition, %; IC50 in µM for titrated hits | Virion infectivity factor (Human immunodeficiency virus type 1 group M subtype B (isolate … | TR-FRET GST-Vif / biotin-A3G peptide binding; higher % means a stronger effect; test concentration not given here; strong numbers were not always called active | hit rate 0.57% among 260,000;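 active = above the screen mean plus three standard deviations and confirmed in dose response; inconclusive = results disagree or hit not tested in dose response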;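 note: Vif residues 1-94 fused to GST binding biotinylated APOBEC3G peptide 110-148; 0% = full assay without inhibitor and 100% = GST in place of GST-Vif; retest series ran down from 100 µM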
Calb FLC = C. albicans growth inhibition with fluconazole, primary screen, CaCi-2 strain, Alamar Blue fluorescence; AID 1979, 2009; hit rate 0.57% among 300,000; C. albicans CaCi-2 (fluconazole-resistant clinical isolate) + fluconazole, 48 h; growth inhibition, % (no concentration beside the values);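 active = most replicates above 75%; inconclusive = exactly half above 75%; inactive = most below 75%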;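 note: all wells also contain fluconazole at 8 µg/ml as a sub-toxic cotreatment; 0% = median of DMSO wells and 100% = median of geldanamycin control wells; wells of about 8 µL received 7.5 nL stock; the first replicate is given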
T cruzi repl = inhibitors of intracellular T. cruzi growth, primary screen, luminescence, NIH3T3 host cells. T. cruzi beta-gal in NIH3T3, 90 h. inhibition, % (concentration not given with the values). hit rate 1.4% among 300,000. AID 1885, 2009;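 active = mean inhibition across valid replicates above about 55%, limit read from the data; inconclusive = mean below that limit but half or more replicates reach it; inactive = mean below it, under half of replicates reach it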;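 note: signal also drops with host cell toxicity which is not excluded here; 0% = plate median of DMSO wells and 100% = zero luminescence signal; higher percent means less beta-gal luminescence so fewer parasites; stock transfer was 50 nL into about 50 µL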
rRNA inh HTS = reduced GFP signal of wild-type E. coli, primary screen, bacterial rRNA inhibitor project, GFP/RFP fluorescence, OD600, single point; E. coli WT GFP vs humanized-ribosome RFP mutants, 24 h; active compounds read low; DMSO median 0, no signal -100; GFP signal change (wild-type ribosome), % (concentration not given with the values); hit rate 1.6% among 350,000;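 active = significant combined selectivity score with lowered wild-type GFP, culture density cut under 30%, mutant RFP and density less affected; inactive = any of these conditions unmet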; note: one replicate is shown; some compounds called inactive have numbers as strong as hits
AF4-AF9 inh = inhibitors of AF4 peptide binding to AF9, primary screen, biochemical, AlphaScreen, biotin-AF4 peptide, FLAG-AF9, single point | hit rate 0.47% among 350,000 | AID 651704, 2012 | inhibition, % at 10 µM | Protein AF-9 (Homo sapiens), P42568;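 active = every replicate reaching a set inhibition limit, whatever the replicate mean, cut at about 25% in these data; inconclusive = mean inhibition reaches that limit but some replicates miss it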;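 note: 0% = plate neutral control median and 100% = total signal loss; the record names both 10 and 1 µM as test concentration; the first replicate is given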
Target sequence (P42568 whole entry, looked up): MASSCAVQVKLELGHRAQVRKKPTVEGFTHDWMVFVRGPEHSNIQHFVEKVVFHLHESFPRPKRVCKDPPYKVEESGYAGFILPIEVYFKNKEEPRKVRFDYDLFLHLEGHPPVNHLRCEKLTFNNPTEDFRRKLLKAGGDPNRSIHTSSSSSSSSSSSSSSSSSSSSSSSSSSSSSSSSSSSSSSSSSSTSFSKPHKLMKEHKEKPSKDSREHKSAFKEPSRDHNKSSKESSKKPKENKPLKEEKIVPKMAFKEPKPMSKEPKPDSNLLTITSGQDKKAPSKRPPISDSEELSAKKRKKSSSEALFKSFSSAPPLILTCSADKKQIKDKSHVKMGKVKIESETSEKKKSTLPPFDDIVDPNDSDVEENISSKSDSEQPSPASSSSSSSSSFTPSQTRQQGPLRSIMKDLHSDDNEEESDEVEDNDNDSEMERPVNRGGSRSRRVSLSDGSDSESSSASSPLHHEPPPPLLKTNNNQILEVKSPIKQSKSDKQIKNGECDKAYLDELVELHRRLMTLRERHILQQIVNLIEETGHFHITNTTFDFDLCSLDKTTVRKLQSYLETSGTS
A1 inh = caspase 3/7 activation in MEF A1-2A-BIM cells, primary screen, A1 inhibitor project, cell-based, luminescence, HTS. caspase activation, % (concentration not given with the values). Caspase-Glo 3/7 luminescence, 3 h; percent of clofoctol response, vehicle zero. hit rate 0.066% among 330,000;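 active = over half of replicate activation scores above 10%, or exactly half above 10 with the replicate mean above 10; inconclusive = replicate mean below 10 yet half the replicates above 10; inactive = over half of replicates below 10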;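 note: wells of about 30 µL received 50 nL stock; many hits fall short of the cut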
rRNA inh HTS OD600 = second read-out of rRNA inh HTS, no call of its own (marks repeat the call); OD600 change, %; measured here: OD600 growth;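 optical density of the mix in the first replicate; 0 = DMSO median and -100 = no signal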
rRNA inh HTS RFP = also measured in rRNA inh HTS; calls as there; RFP signal change, %; measured here: RFP humanized mutant strains;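 first replicate; 0 = DMSO median and -100 = no signal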
Numbers without * were called inactive; ? = inconclusive; nt = no result given; & = joins results of further samples.

Values run as follows: rRNA inh HTS RFP, T cruzi repl, Calb FLC, A1 inh, rRNA inh HTS OD600, AF4-AF9 inh, Beta cell apopt, RanGTP-Impb inh, rRNA inh HTS, Vif TR-FRET
- C=C1[C@@H](OC(C)=O)CC[C@]2(C)[C@@H]1C[C@@H]1C[C@H](OC(C)=O)C(C)=C([C@@H](OC(C)=O)[C@@H]2OC(C)=O)C1(C)C
    -7.4, 7.4, 22.9, 0.2, -2.0, 7.2, -10.5, ?, 3.2, 3.3%
- CN(C)S(=O)(=O)c1cccc(C(=O)NCC(C)(C)CNC(=O)c2cccc(S(=O)(=O)N(C)C)c2)c1
    0.7, 15.7, -3.3, 0.1, 0.7, -2.1, nt, 2.5, -4.1, 1.4%
- CCn1c(CNC(=O)COc2c(C)cccc2C)nnc1SCC(=O)Nc1nccs1
    nt, -0.9, -7.2, -0.1, nt, nt, -4.2, -2.6, nt, 2.0%
- CCN(CCn1cccn1)Cc1cn[nH]c1-c1ccc(OC)cc1F
    0.8, -0.9, -12.8, 1.7, 5.6, -0.4, -8.6, 0.8, 9.0, 1.5%
- CC(C)COP(=O)(OCC(C)C)C(O)c1ccc(F)cc1 (stereo unspecified)
    nt, 5.1, 21.0, 0.7, nt, nt, -3.4, -0.5, nt, -2.1%
- CCOC(=O)c1oc2cc(OCC(=O)OC)ccc2c(=O)c1-c1ccc(OC)c(OC)c1
    1.6, -4.7, 12.5, 0.7, 6.6, 2.8, -6.9, -1.7, 2.0, nt
- COc1cccc(-c2sc3ccc(OC)cc3c2-c2ccc(OC)cc2F)c1
    7.7, nt, nt, 0.0, 11.2, 1.5, 6.8, nt, 5.6, nt
- COc1cccc2c1OC1(C)CC2NC(=O)N1c1cccc(C(=O)Nc2ccc3c(c2)OCCO3)c1 (stereo unspecified)
    nt, 0.7, 10.4, 1.1, nt, nt, 0.8, -2.1, nt, -0.3%
- Cc1ccc(S(=O)(=O)NC(=O)NCc2ccc(F)cc2)cc1
    -2.8, -3.4, -7.6, 0.5, -3.1, -2.7, -4.8, 3.1, -1.6, 19.1%
- CCCCNc1ncnc2c1cnn2-c1ccccc1
    nt, 3.1, nt, 0.6, nt, nt, 5.0, -3.4, nt, -2.6%
- CCOc1ccc(NS(=O)(=O)c2ccc(C(=O)N(CC)CC(=O)NCc3cccs3)cc2)cc1
    2.0, 12.3, -8.4, -0.1, -3.7, 19.5, -1.4, 1.4, -1.9, nt
- Cc1ccc(C(=O)/C=C/c2ccccc2[N+](=O)[O-])cc1
    -1.4, -22.3, -7.1, -0.8, 9.8, 4.5, -10.6, 2.5, 4.8, 2.7%
- COc1ccc(OCCOC(=O)c2[nH]c(C)c(C(C)=O)c2C)cc1
    nt, 2.1, 7.5, -0.5, nt, nt, 20.8, -3.5, nt, 10.8%
- O=C(Nc1csc([N+](=O)[O-])c1)Nc1ccccc1Cl
    -6.9, 45.0, 7.0, -2.0, -52.5, -3.4, 42.1, 0.5, -47.6, -3.1%
- N#Cc1ccccc1S(=O)c1ccccc1C(=O)Nc1ccccc1 (stereo unspecified)
    0.4, 3.8, 25.0, -0.8, -4.2, -0.3, 0.1, -2.7, 6.6, -2.8%
- S=c1[nH]nc(-c2ccc(Cl)cc2)n1/N=C/c1ccco1
    nt, -7.3, 44.7, 0.5, nt, -1.3, -15.9, 0.0, nt, 8.3%
- COCCOC1CCN(C(=O)C2CCC(=O)N(CCc3ccccc3)C2)CC1 (stereo unspecified)
    -0.2, -9.7, 1.1, -0.1, -3.8, -1.3, -1.5, ?, 6.2, -0.5%
- COc1cc(C(=O)NCC(=O)NC(C)CCc2ccccc2)cc(OC)c1OC (stereo unspecified)
    2.0, -4.3, -12.9, -1.0, -0.2, -0.3, -2.7, 6.2, 0.6, nt
- O=C(CNc1n[nH]c(=O)[nH]c1=O)N/N=C/C1CC=CCC1 (stereo unspecified)
    -31.2, 1.2, -2.2, 1.6, -77.7, 0.6, -5.3, -2.6, -56.7, ?
- CC(C)n1c(N2CCN(C(=O)c3cccs3)CC2)nc2ccccc21
    nt, 2.0, 9.3, 0.3, nt, nt, 0.8, -3.5, nt, -7.2%
- COc1ccc(OCc2cc(-c3ccc(Cl)cc3)no2)cc1
    -0.5, -82.9, 6.2, 0.0, 7.7, -3.3, -11.6, -3.3, 9.9, -2.7%
- CCOc1ccc(C(=O)Nc2c3c(nn2-c2cccc(C)c2C)CS(=O)C3)cc1 (stereo unspecified)
    3.2, -9.7, 6.2, 0.7, 1.5, 0.8, nt, -2.5, -2.5, 0.0%
- O=C(Nc1ccc(CN2CCOCC2)cc1)c1ccc(-c2cccc([N+](=O)[O-])c2)o1
    -0.8, 16.3, 11.2, -0.1, 0.3, 2.5, 8.3, 1.4, -16.4, nt
- CC(=O)NC(CCS(C)(=O)=O)C(=O)Nc1cc(C)on1 (stereo unspecified)
    6.7, -6.8, 11.1, 0.1, 6.2, -1.2, -2.4, -1.2, 6.5, nt
- CC(CCc1ccccc1)NC(=O)c1ccc(NC(=O)c2ccccc2)cc1 (stereo unspecified)
    2.1, -38.3, -6.6, ?, 13.8, -1.0, 20.0, 5.9, 12.6, nt
- O=C(Nc1ccc(-c2nc3ccccc3[nH]2)cc1)c1ccc2c(c1)OCO2
    6.9, 3.6, 6.1, -0.6, 7.0, -0.9, 32.7, 5.8, 1.7, -25.9%
- Cc1cc(NC(=O)CCCN2C(=O)c3cccc4cccc(c34)C2=O)no1
    -0.3, -1.0, 0.2, 0.0, 11.7, -8.5, -3.7, -5.4, 19.1, 4.1%
- CC(C)N1C(=O)C(Cc2nc3ccccc3c(=O)n2-c2ccccc2)c2ccccc21 (stereo unspecified)
    6.3, 47.2, 1.5, -1.0, 3.1, 10.6, -2.0, -2.2, -0.7, 4.8%
- COc1ccc(C(=O)NC(C)c2csc(C)n2)cc1OC1CCN(C(C)=O)CC1 (stereo unspecified)
    -4.5, -9.9, 23.9, 0.3, 3.8, 0.1, -3.8, 2.2, -5.2, -10.1%
- CCN(CC)CCCNC(=O)CSc1c2c(nc3cc(Cl)ccc13)CCCC2
    0.7, 29.3, -25.8, 0.4, 13.1, 4.2, -0.5, -0.4, 13.3, -5.9%
- Cc1cc(C)c(C)c(OCCCN(C)C)c1
    nt, 43.2, -4.6, 1.3, nt, nt, 1.2, -3.8, nt, -5.1%
- FC(F)(F)c1ccc(N2CCN(c3ncnc4c3nnn4Cc3ccccc3)CC2)nc1
    -0.5, -7.2, 10.0, 0.2, 15.9, nt, -7.2, 1.2, 6.3, -3.6%
- O=C(N/N=C/CCc1ccccc1)C1CCCCC1
    -0.6, -1.5, -9.8, 0.0, 9.5, 2.0, -1.2, 0.8, 12.1, -3.8%
- COC(=O)CC1C(=O)NCCN1C(=S)Nc1cccc(C(F)(F)F)c1 (stereo unspecified)
    1.8, 17.9, -8.8, 1.0, -8.1, -1.6, -6.2, -1.9, -13.4, 4.9%
- Cc1cc(C(=O)CSc2ccc3c(c2)OCCO3)c(C)n1C1CC1
    -2.3, -0.3, -0.2, 0.1, -0.7, 6.6, -7.2, -1.6, 0.5, 18.6%
- O=C1c2ccccc2S(=O)(=O)N1CCOc1ccccc1
    nt, -10.9, 14.5, -0.5, nt, nt, -1.7, 0.1, nt, 0.6%
- CCOc1ccccc1NC(=O)CN1CCC(NC(=O)c2ccccc2)CC1
    nt, 7.3, -3.3, 2.5, nt, nt, 1.2, ?, nt, 3.2%
- CC1CCN(S(=O)(=O)c2cccc(C(=O)NCc3cccs3)c2)CC1
    nt, -11.2, -3.9, -0.2, nt, nt, -5.2, 3.2, nt, 1.4%
- O=C(O)c1ccccc1SCc1cn2cc(Br)ccc2n1
    -0.4, -12.0, 1.0, -0.1, 4.1, -2.1, -4.0, 3.9, 10.4, -11.6%
- CC(=O)Nc1ccc(NC(=O)C2CCCN(C(=O)c3ccc(Cl)cc3)C2)cc1 (stereo unspecified)
    -1.4, -19.3, -2.4, 0.6, -0.8, -0.9, -10.2, 7.6, -2.3, 3.0%
- Cc1cc(C)cc(NC(=O)N2CCC(NC(=O)c3ccc(F)cc3)CC2)c1
    nt, -16.3, 10.5, -0.6, nt, nt, 5.9, -1.0, nt, 1.0%
- C=CCOC(=O)C1=C[C@H](c2ccc(Br)cc2)[C@@H](CCCO)[C@H](OCC)O1
    -1.8, 19.9, -0.8, -0.7, -52.6, -0.2&0.9, 1.4, -2.3, -35.0, -5.2%
- C/C(=N\N=C1\NC(=O)C(CC(=O)Nc2ccc(C)c(Cl)c2)S1)C(C)(C)C (stereo unspecified)
    nt, -14.2, ?, -0.6, nt, nt, 17.8, -1.4, nt, -1.3%
- CC(C)NC(=S)N/N=C/c1cccnc1
    -3.3, -15.0, 0.0, -0.3, 4.9, 0.8, nt, -0.7, 6.2, nt
- NS(=O)(=O)c1ccc(CCNC(=O)c2ccc3c(c2)OCCO3)cc1
    2.4, -13.6, -13.3, ?, 13.2, 0.4, -3.3, -2.1, 5.4, ?
- O=C(Nc1ncc([N+](=O)[O-])s1)C1CCN(S(=O)(=O)c2cnc[nH]2)CC1
    9.4, -1.5, -0.1, -1.6, -5.8, -0.1, 1.4, 0.9, -10.1, 4.1%
- COc1ccc(NC(=O)NCc2ccc3c(c2)OCO3)c(OC)c1
    1.1, -6.7, -7.0, 0.7, 16.0, -0.3, -2.9, -3.2, 6.3, -3.1%
- Cc1cc(NC(=O)c2ccc(F)cc2)n(C)n1
    1.2, -13.2, -1.8, 0.6, 7.2, -2.0, -4.2, 2.6, 10.0, nt
- COC(=O)c1sccc1NC(=S)Nc1ccc(OC)cc1
    -2.2, -20.6, ?, -0.9, 11.1, 0.5, -6.6, -3.9, 10.6, nt
- CC(C)(C)C(=O)C(Oc1cccc2nonc12)n1cncn1 (stereo unspecified)
    3.5, -9.3, 13.6, -0.3, 1.8, -35.8, -2.1, 1.3, -2.1, 2.0%
- CCCc1cc(C(=O)NNC(=S)NCC2CCCO2)cs1 (stereo unspecified)
    nt, 3.4, 3.1, 0.1, nt, nt, -5.3, -3.8, nt, nt
- N#Cc1c2n(c3c(=O)n(CC(=O)c4ccc([N+](=O)[O-])cc4)cnc13)CCCCC2
    nt, 19.0, 1.9, -0.1, nt, -2.9, 4.3, 0.2, nt, -3.9%

Source: PubChem

Some of the compounds tested; the hit share may differ from the screen's.
